Source: PubChem
CSC inhib – cancer stem cell inhibition | cancer stem cell-like cells viability, luminescence | inhibition, % at 7.5 µM | 1.1% of 300,000 active;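 active = mean at 75% or more and at least half the replicates too; inconclusive = mean and replicates disagree; tested in HMLE shEcad cells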;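 note: 0% = median of negative and 100% = median of positive control wells; the first replicate is given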
Env fusion inh – blocks HIV Env-driven cell-cell fusion; HeLa-JRFL Env/CEM21 cell fusion, luciferase; 1.1% of 360,000 active; inhibition, % at 12.3 µM;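 active = mean replicate inhibition score of at least 50 and every replicate individually at or above 50; inconclusive = only one of the two criteria met; inactive = mean below 50 and not all replicates reaching 50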;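 note: 0% = plate neutral controls and 100% = maraviroc near 300 nM; one replicate is shown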
Rce1 inh – inhibitors of yeast Ras-converting enzyme | calls only | yeast membranes, quenched prenylated peptide cleavage fluorescence | 0.27% of 290,000 active | AID 2563 | Q03530;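 active = fall in fluorescence gain of 50% or more versus controls, with final raw signal at or below 3038400; inconclusive = same 50% fall but final raw signal above 3038400; inactive = fall in fluorescence gain under 50%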;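 note: plate controls were neutral control wells for no effect and wells lacking membranes for full effect; tested at 10 µM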
Target sequence (Q03530 whole entry, looked up): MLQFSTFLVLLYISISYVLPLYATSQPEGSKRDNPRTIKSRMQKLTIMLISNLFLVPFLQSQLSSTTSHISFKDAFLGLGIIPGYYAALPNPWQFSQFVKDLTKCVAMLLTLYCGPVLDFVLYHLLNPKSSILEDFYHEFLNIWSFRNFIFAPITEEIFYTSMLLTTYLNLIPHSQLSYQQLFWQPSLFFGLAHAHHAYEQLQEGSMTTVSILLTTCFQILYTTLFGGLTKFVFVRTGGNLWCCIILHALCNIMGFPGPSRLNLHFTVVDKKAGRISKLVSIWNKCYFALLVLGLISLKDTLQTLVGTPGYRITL
MT1-MMP act inh – blocks activation of human MT1-MMP; 0.061% of 360,000 active; GFP/RFP ratio change, % at 20 µM; P50281; AID 651647; HT1080 RFP-PRO-GFP cells, GFP/RFP ratio fluorescence, overnight; percent of plate control window, DMSO zero;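 active = GFP/RFP ratio change of at least 30% with cell ATP level not reduced by more than half and red fluorescence within 50% of control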; note: strong numbers were not always called active
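Assay system – RFP-PRO-GFP reporter HT1080 cells · Compound dosing – single dose of 20 µM compound, 1% DMSO final · Incubation – overnight compound exposure at 37 °C · Measure – GFP/RFP fluorescence ratio · Benchmarks – DMSO wells and RFP-L50D-GFP cells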
UUG fidelity – alters start codon recognition fidelity in yeast | S. cerevisiae UUG-firefly luciferase reporter, luminescence/redox ratio | activity score, % at 18.7 µM | 0.13% of 350,000 active;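 active = replicate mean at a twofold rise or more, about +100% in these data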;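 note: firefly luciferase made from a UUG start codon reports start codon fidelity; reporter light over untreated wells divided by growth signal over untreated wells; some hits fall short of that in this replicate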
PABP polyA inh – blocks human PABP binding to poly(A) RNA; 1% of 290,000 active; fluorescence polarization; inhibition, % at 35 µM; P11940;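 active = 50% or more with normal probe brightness, or confirmed in later tests; inconclusive = above 50% with abnormal brightness, or retests that disagree; inactive = below 50% or failed in later tests; about a fifth of its hits are not listed in these tables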;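 note: calls also rest on retests at 20 µM and on dose response follow-up; controls were probe without protein and protein plus probe with vehicle; some compounds called inactive have numbers as strong as hits; many hits fall short of the cut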
Target sequence (P11940 whole entry, looked up): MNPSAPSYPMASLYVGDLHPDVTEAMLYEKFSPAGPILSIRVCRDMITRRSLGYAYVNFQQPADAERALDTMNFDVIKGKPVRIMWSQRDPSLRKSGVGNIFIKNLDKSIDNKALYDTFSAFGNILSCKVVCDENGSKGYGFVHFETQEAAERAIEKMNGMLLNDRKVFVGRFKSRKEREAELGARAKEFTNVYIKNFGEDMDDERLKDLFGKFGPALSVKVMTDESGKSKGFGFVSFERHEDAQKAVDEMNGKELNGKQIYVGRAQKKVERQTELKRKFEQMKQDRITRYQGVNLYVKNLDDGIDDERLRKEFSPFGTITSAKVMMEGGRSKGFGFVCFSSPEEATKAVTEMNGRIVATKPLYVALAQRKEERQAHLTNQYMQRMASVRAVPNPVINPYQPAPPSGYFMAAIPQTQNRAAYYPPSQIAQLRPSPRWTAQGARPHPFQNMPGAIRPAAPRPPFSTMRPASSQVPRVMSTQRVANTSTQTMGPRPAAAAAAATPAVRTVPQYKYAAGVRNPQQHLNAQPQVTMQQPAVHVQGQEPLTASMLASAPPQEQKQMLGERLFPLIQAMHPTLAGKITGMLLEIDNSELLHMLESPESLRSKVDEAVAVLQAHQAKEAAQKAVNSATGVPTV
eIF4H FP inh – inhibitors of RNA binding by human eIF4H. Q15056. eIF4H fluorescence polarization binding assay. inhibition, % at 35 µM. 0.94% of 290,000 active;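 active = 50% or more with normal probe brightness, or confirmed in later tests; inconclusive = above 50% with abnormal brightness, or retests that disagree; inactive = below 50% or failed in later tests; about a fifth of its hits are not listed in these tables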;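 note: calls also rest on retests at 20 µM and on dose response follow-up; 0% = protein and probe with vehicle and 100% = probe without protein; strong numbers were not always called active; many hits fall short of the cut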
eIF4H FP inh retest – further read-out of eIF4H FP inh, marked with its call; inhibition, %; compound at 20 µM; confirmation average;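 mean of two retest wells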
PABP polyA inh retest – recorded beside PABP polyA inh, whose call it bears; inhibition, %; compound at 20 µM; confirmation repeats;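 mean of two retest wells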
MT1-MMP act inh RFP – further read-out of MT1-MMP act inh, marked with its call; RFP signal change, %; measured here: RFP expression control read;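 0 = vehicle wells; hits needed this value within 50% of zero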
* marks the source's active call; other numbers are inactive results; i = inactive; ? = inconclusive; · = no result given; + = active, no number. Not all compounds are listed; count on the stated rates, not on these rows.

SMILES | CSC inhib | Env fusion inh | Rce1 inh | MT1-MMP act inh | MT1-MMP act inh RFP | UUG fidelity | PABP polyA inh | eIF4H FP inh | others
CSCc1nnc2n1-c1ccc(Cl)cc1C(c1ccccc1)=NC2 | -1 | · | i | 0 | 3 | -6 | 7 | -8
COC(=O)C1=C(c2ccc(OC)c(OC)c2)C[C@@H]2CC[C@H]1N2C(=O)NCc1ccco1 | 1 | -6 | · | 1 | 5 | -9 | · | ·
COc1ccc(-c2nc(CS(=O)CC(=O)N3CCC4(CC3)OCCO4)c(C)o2)cc1 (centres undefined) | -10 | -11 | i | 2 | 2 | 0 | 9 | -1
CCN(CC)C(=O)c1ccc2c(c1)C1C(Cl)C(Sc3ccccc3[N+](=O)[O-])CC1C(C(=O)O)N2 (centres undefined) | 17 | · | i | 69 | 57 | · | 95* | 90*
COc1ccccc1N1CCN(Cc2ccc(SC)cc2)CC1 | -1 | 16 | i | -3 | -3 | -11 | 5 | 12
CCCCn1c(=O)c(C(=O)Nc2ccccc2S(N)(=O)=O)c(O)c2ccccc21 | 41 | -32 | i | 6 | -3 | -21 | -5 | 1
CCCCC(=O)N/N=C/c1c(O)n(CCc2ccccc2)c(=O)[nH]c1=O | -8 | 23 | i | -5 | -1 | -8 | -10 | 3
O=c1[nH]c(O)c(C=Nc2cc(F)cc(F)c2)c(=O)[nH]1 | -10 | 4 | i | -2 | 3 | -22 | ? | ?
O=C(c1ccccc1F)c1cn(CC(=O)N2CCCC2)c2ccccc12 | -6 | -4 | i | 3 | 1 | -7 | 9 | 4
CC(N)C(=O)c1ccco1 (centres undefined) | -14 | · | i | 2 | 5 | -24 | -8 | -16
CCc1ccccc1NC(=O)CNC1CCCCC1 | -6 | 5 | i | 6 | -1 | -12 | -1 | 12
CN(C)C(Cc1ccccc1)C(=O)c1c[nH]c2ccccc12 (centres undefined) | -15 | 9 | i | -16 | -4 | -24 | 8 | 1
c1ccc(-c2ccc(CN3Cc4ccccc4-n4nncc4C3)cc2)cc1 | · | 51 | · | -2 | -26 | -19 | · | ·
O=S(=O)(c1ccccc1)N1Cc2ccccc2-n2nncc2C1 | · | 17 | · | 3 | 1 | -16 | · | ·
O=C(c1ccccc1)c1ccccc1N=Cc1c(O)[nH]c(=O)[nH]c1=O | -10 | 4 | i | -1 | 1 | · | 0 | -2
O=C1NC(=S)N(c2ccc(Br)cc2)C(=O)/C1=C/N1CCN(C(=O)c2ccco2)CC1 | 4 | -3 | i | -10 | 17 | · | ? | ?
CN(C)P(=S)(Nc1ccccc1)C(Cl)(Cl)Cl (centres undefined) | -13 | -3 | i | 1 | 4 | -6 | 19 | -6
CCCC(C)C(=O)NC1CCSC1=O (centres undefined) | -10 | -59 | i | · | · | -13 | 3 | -1
CSc1ncc(/C=C2/C(=O)NC(=O)N(C)C2=O)cn1 | -19 | · | i | 2 | 3 | · | 9 | -3
CC1NCCC2(O)CCCCC12 (centres undefined) | -14 | 12 | · | -2 | 3 | · | 11 | -2
CC(C)C(=O)Nc1ccc(S(=O)(=O)N2CC3CC(C2)c2cccc(=O)n2C3)cc1 (centres undefined) | -9 | 3 | i | -1 | 8 | 1 | -4 | -8
CCOP(=S)(OCC)Oc1cc(C)oc(=O)c1 | -8 | 16 | i | -3 | 0 | · | 40 | 12
S=P(Nn1cnnc1)(c1ccc(Br)cc1)c1ccc(Br)cc1 | 4 | 1 | · | 1 | 2 | · | 3 | 1
Oc1ccccc1C1NCc2ccccc2-n2cccc21 (centres undefined) | -23 | -21 | i | -1 | 1 | -15 | 3 | -2

6 compounds already listed, sorted by heavy-atom count, falling.
SMILES | CSC inhib | Env fusion inh | Rce1 inh | MT1-MMP act inh | MT1-MMP act inh RFP | UUG fidelity | PABP polyA inh | eIF4H FP inh | others
CC(C)C(=O)Nc1ccc(S(=O)(=O)N2CC3CC(C2)c2cccc(=O)n2C3)cc1 (centres undefined) | -9 | 3 | i | -1 | 8 | 1 | -4 | -8
O=C(c1ccccc1)c1ccccc1N=Cc1c(O)[nH]c(=O)[nH]c1=O | -10 | 4 | i | -1 | 1 | · | 0 | -2
O=S(=O)(c1ccccc1)N1Cc2ccccc2-n2nncc2C1 | · | 17 | · | 3 | 1 | -16 | · | ·
Oc1ccccc1C1NCc2ccccc2-n2cccc21 (centres undefined) | -23 | -21 | i | -1 | 1 | -15 | 3 | -2
CSc1ncc(/C=C2/C(=O)NC(=O)N(C)C2=O)cn1 | -19 | · | i | 2 | 3 | · | 9 | -3
CC1NCCC2(O)CCCCC12 (centres undefined) | -14 | 12 | · | -2 | 3 | · | 11 | -2

The list continues.
SMILES | CSC inhib | Env fusion inh | Rce1 inh | MT1-MMP act inh | MT1-MMP act inh RFP | UUG fidelity | PABP polyA inh | eIF4H FP inh | others
CC(=NCCCO)c1c(O)n(Cc2ccccc2)c(=O)[nH]c1=O | 0 | · | i | 2 | 0 | -16 | 8 | -4
C[N+]1(CC2COC(c3ccco3)O2)CCCCC1 (centres undefined) | -8 | 12 | i | -3 | -1 | · | -8 | 1
C=CCn1c(O)c(/C=N/NC(=O)c2ccncc2)c(=O)[nH]c1=O | 0 | 8 | i | -6 | -2 | · | -12 | -2
Cc1c(C)c2cc(Cl)c(OCC(=O)N3C[C@H]4C[C@@H](C3)c3cccc(=O)n3C4)cc2oc1=O | -11 | · | i | 3 | 1 | 8 | 0 | 9
COc1ccccc1-n1c(-c2ccoc2)nc2ccccc2c1=O | 7 | · | i | 6 | 4 | -9 | -1 | 8
O=c1[nH]c2ccccc2n1C1CCN(C(c2nnnn2-c2ccc3c(c2)OCCO3)C2CC2)CC1 (centres undefined) | · | 49 | · | -14 | -6 | -20 | · | ·
O=CC(Cl)P(=O)(N1CCCCC1)N1CCCCC1 (centres undefined) | 0 | · | i | 1 | 4 | -15 | -1 | 2
CCOCCCNC(=O)CN1C2CCC1CC(O)(c1ccc(OC)cc1)C2 (centres undefined) | 1 | · | i | 1 | 3 | -25 | -8 | -16
COc1cccc(OC)c1C(=O)NC(=S)N1C[C@H]2C[C@H](C1)c1cccc(=O)n1C2 | 2 | · | i | 5 | 4 | -21 | 13 | -6
CC(C)C(=O)Nc1ccc(N2CCN(C)CC2)c(F)c1 | -6 | -3 | i | 0 | 1 | · | 10 | -3
NCCc1c[nH]c2ccc(C(N)=O)cc12 | -10 | -3 | · | -1 | -3 | -25 | · | ·
Cc1cccc(NC2=NCCCS2)c1 | -13 | 2 | i | 0 | 2 | -6 | 5 | 14

In the list so far, 2 contain bromine:
SMILES | CSC inhib | Env fusion inh | Rce1 inh | MT1-MMP act inh | MT1-MMP act inh RFP | UUG fidelity | PABP polyA inh | eIF4H FP inh | others
O=C1NC(=S)N(c2ccc(Br)cc2)C(=O)/C1=C/N1CCN(C(=O)c2ccco2)CC1 | 4 | -3 | i | -10 | 17 | · | ? | ?
S=P(Nn1cnnc1)(c1ccc(Br)cc1)c1ccc(Br)cc1 | 4 | 1 | · | 1 | 2 | · | 3 | 1

Later entries.
SMILES | CSC inhib | Env fusion inh | Rce1 inh | MT1-MMP act inh | MT1-MMP act inh RFP | UUG fidelity | PABP polyA inh | eIF4H FP inh | others
O=C(Nc1ccc(Cl)cc1)OC1CN2CCC1CC2 (centres undefined) | 18 | -56 | i | 0 | 5 | · | 0 | 1
O=c1[nH]c(=O)n(C2CCCCCC2)c(O)c1C=NCc1cccnc1 | -10 | 1 | i | -2 | -5 | · | -6 | 7
O=c1[nH]c(=S)n(Cc2ccc(F)cc2)c(O)c1C=NCCCn1ccnc1 | -4 | 10 | i | -4 | 1 | · | 1 | -6
N#Cc1c(Cl)nc(Cl)c2c1CCN(Cc1ccccc1)C2 | -7 | · | + | -5 | 7 | · | -13 | 65 | eIF4H FP inh retest=-7;PABP polyA inh retest=0
Cn1c(O)c(C(=N)COc2ccccc2)c(=O)n(C)c1=O | · | -69 | i | 4 | 4 | -11 | 0 | 1
COC(=O)C1=C(c2ccc(C(C)=O)cc2)C[C@@H]2CC[C@H]1N2C(=O)NCCOc1ccccc1Cl | -3 | 21 | · | 2 | -3 | 0 | · | ·
CCCCn1c(O)c(/C=N/N2CCOCC2)c(=O)[nH]c1=S | 1 | 9 | i | 3 | 3 | -21 | -10 | -8
CC1=C[C@@H]2c3cccc4[nH]cc(c34)C[C@H]2N(C)C1 | 3 | -2 | i | -41 | 7 | -14 | ? | ?
CN(C)c1ccc(C(=O)N/N=C/C23CC[C@@H](O)CC2(O)CC[C@@H]2[C@@H]3CCC3(C)C(C4=CC(=O)OC4)CCC23O)cc1 (some centres undefined) | 60 | -313 | i | 6 | 6 | -4 | -2 | 5
Cc1ccccc1NC1(C#N)CCCCC1 | -6 | 7 | i | 2 | 3 | · | -10 | -1
Cc1ccc2c(c1)cc1c(=O)n(CC(=O)N3CCC4(CC3)OCCO4)nc(C)n12 | -8 | 2 | i | 4 | 4 | -13 | -3 | -2
COc1ccc(C(c2nnnn2C(C)(C)C)N2CCC3(CC2)C(=O)NCN3c2ccccc2)cc1 (centres undefined) | · | -79 | · | -1 | -6 | 7 | · | ·
CC(C#N)CCC#N (centres undefined) | -14 | · | · | 1 | 8 | -4 | · | ·
c1ccc(-c2nnc(C3CC(c4cccnc4)=NO3)o2)cc1 (centres undefined) | -6 | -11 | i | 3 | 3 | -4 | 2 | 6
CC(C)(C)C(O)C(Oc1ccc(Cl)cc1)n1cncn1 (centres undefined) | 7 | · | i | -1 | 1 | -26 | 1 | 0
CCc1n[nH]c(CCN)n1 | -13 | 9 | i | 1 | 4 | -6 | 11 | -12
O=P(O)(Oc1ccccc1)OC(c1ccccc1)C(F)(F)F (centres undefined) | · | -3 | i | -2 | 0 | -16 | -6 | 28
CC(C)NC(C)Cc1ccc(I)cc1 (centres undefined) | 7 | -7 | · | -1 | 3 | -5 | · | ·
COc1ccccc1CCNC1CCCCCC1 | 0 | 17 | i | -2 | 2 | -18 | 9 | -11
Cc1ccccc1NC(=O)Cc1nc(COC(=O)Cc2ccccc2)cs1 | · | -2 | · | -4 | 3 | -5 | · | ·
COc1cc2c(cc1OC)C1[C@H]3C(=CC[C@H]1OC2O)CCN3C (some centres undefined) | 11 | 4 | · | -2 | 1 | -10 | · | ·
CN1CC(C(=O)c2ccc(Cl)cc2)C(c2ccc(Cl)cc2Cl)C1 (centres undefined) | 21 | 4 | + | -8 | -3 | -17 | -6 | 0
CCC1CN(C)CCC1(OC(C)=O)c1ccccc1 (centres undefined) | -13 | -78 | i | 4 | 7 | -14 | 5 | 4
CC12CN3CC(C)(CN(C1)P3(=O)Oc1ccccc1)C2=O (centres undefined) | 0 | · | i | 5 | 3 | 27 | -14 | -3
